Vaccinia inh: Vaccinia orthopox stage-specific inhibition; activity change (mCherry), % (no concentration beside the values); 89,000 tested, 0.01% active; Vaccinia-infected cells, mCherry/Venus stage reporter fluorescence; stronger effect = lower value; some inactives read as strong as hits;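 active means mCherry past -33% and 40 or more points under the early reporter, replicates agreeing; inconclusive means past -33% without that gap or agreement; tested in A549 cells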;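 further: scaled between vehicle wells and reference inhibitor wells; 23 nL library stock went into each well; one replicate is shown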
Vaccinia inh Venus: second read-out of Vaccinia inh, no call of its own (marks repeat the call); activity change (Venus), %; measured here: Venus reporter, other viral stage;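 negative = less Venus signal; first of two replicates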
Active calls of the source: *; ? = inconclusive; nt = no result given; & = joins results of further samples.

SMILES	Vaccinia inh	Vaccinia inh Venus
O=C(C[C@@H]1C[C@@H]2c3cc(NC(=O)c4ccc5c(c4)OCO5)ccc3O[C@@H]2[C@H](CO)O1)NCCN1CCCCC1	14	22
COCC(=O)Nc1ccc2c(c1)C(=O)N(C)C[C@@H](OC)[C@@H](C)CN(CCc1ccccc1)[C@H](C)CO2	4	-1
Cc1cccc(S(=O)(=O)N[C@H]2CC[C@H](CCNS(=O)(=O)c3ccccc3F)O[C@@H]2CO)c1	?	nt
C[C@H]1CN([C@@H](C)CO)C(=O)Cc2cc(NC(=O)CCN3CCOCC3)ccc2O[C@H]1CN(C)C	8	-5
C[C@H]1CN([C@@H](C)CO)C(=O)c2cc(-c3ccccc3F)cnc2O[C@@H]1CN(C)C(=O)C1CCCCC1	-7	-16
CCCC(=O)Nc1ccc2c(c1)C(=O)N(C)C[C@H](OC)[C@@H](C)CN(CCC(F)(F)F)[C@@H](C)CO2	-6	5
Cc1ccc(S(=O)(=O)N[C@H]2CC[C@@H](CC(=O)NCCCN(C)C)O[C@@H]2CO)cc1	9	3
COC(=O)c1c2oc(c1C(=O)OC)C(=O)N[C@H](Cc1ccccc1)Cn1cc(nn1)[C@H](Cc1ccccc1)NC(=O)N[C@H](CO)CC2	21	14
COc1ccc(CN2C[C@H](C)[C@@H](OC)CN(C)C(=O)c3cc(NC(=O)c4nc5ccccc5s4)ccc3OC[C@@H]2C)cc1	-12	-1
CO[C@@H]1CN(C)C(=O)c2cc(NS(=O)(=O)c3ccccc3)ccc2OC[C@H](C)N(Cc2cccnc2)C[C@H]1C	4	4
COc1ccc(CN(C)C[C@H]2OCCCC[C@H](C)Oc3ccc(NC(=O)C4CCCCC4)cc3C(=O)N([C@@H](C)CO)C[C@H]2C)cc1	?	nt
O=C(Nc1ccc2c(c1)[C@@H]1C[C@@H](CC(=O)N3CCCCC3)O[C@@H](CO)[C@@H]1O2)C1CCC1	-4	-6
Cc1noc(C)c1S(=O)(=O)Nc1ccc2c(c1)C(=O)N([C@@H](C)CO)C[C@H](C)[C@H](CN(C)S(C)(=O)=O)OCCCC[C@@H](C)O2	9	10
CCC(=O)Nc1ccc2c(c1)C(=O)N(C)[C@@H]1CC[C@H](CC(=O)N3CCc4ccccc4C3)O[C@H]1CO2	-3	0
COCC(=O)N(C)C[C@@H]1Oc2ncc(C#Cc3cccnc3)cc2C(=O)N([C@@H](C)CO)C[C@H]1C	24	11
C[C@@H]1CCCCO[C@@H](CN(C)C(=O)c2ccncc2)[C@H](C)CN([C@H](C)CO)C(=O)c2cc(NS(=O)(=O)c3ccc(F)cc3)ccc2O1	36	19
O=C(C[C@@H]1CC[C@H](NC(=O)c2ccc3c(c2)OCO3)[C@H](CO)O1)NC1Cc2ccccc2C1	-7	-12
O=C(c1ccncc1)N1C[C@@H]2N[C@H](C1)C2c1ccc(/C=C/c2ccccc2)cc1 (stereo partly drawn)	12&-26	0&-19
C[C@H](CO)N1C[C@H](C)[C@H](CN(C)C(=O)Nc2ccc(F)cc2)Oc2ncc(-c3ccc(C#N)cc3)cc2C1=O	-5	-5
CC(C)NC(=O)N(C)C[C@@H]1OCCCC[C@@H](C)Oc2ccc(NC(=O)Nc3cccc4ccccc34)cc2C(=O)N([C@@H](C)CO)C[C@@H]1C	34	23
CCCN1C[C@H](C)[C@@H](OC)CN(C)C(=O)c2cc(NC(=O)C3CC3)ccc2OC[C@H]1C	14	12
COc1ccc(S(=O)(=O)N2C[C@@H](O)COC[C@H]3O[C@@H](CC(=O)NCCCN4CCOCC4)CC[C@@H]32)cc1	15	8
C[C@H]1CN([C@@H](C)CO)C(=O)c2cc(NS(=O)(=O)c3ccccc3)ccc2O[C@@H]1CN(C)C(=O)Nc1ccc(F)cc1	13	10
CO[C@@H](CN(C)C(=O)c1cnccn1)[C@@H](C)CN([C@@H](C)CO)S(=O)(=O)c1ccc(F)cc1	24	20
COc1ccc(S(=O)(=O)Nc2ccc3c(c2)CC(=O)N([C@H](C)CO)C[C@H](C)[C@@H](CN(C)S(=O)(=O)c2ccc(OC)cc2)O3)cc1	-16	-12
New compounds follow:
SMILES	Vaccinia inh	Vaccinia inh Venus
COc1ccc(NC(=O)N(C)C[C@H]2OCCCC[C@@H](C)Oc3ccc(NC(=O)Nc4ccc(F)cc4)cc3C(=O)N([C@@H](C)CO)C[C@H]2C)cc1	8	15
C[C@@H]1CN([C@H](C)CO)C(=O)Cc2cc(NC(=O)Cc3cn(C)c4ccccc34)ccc2O[C@H]1CN(C)S(=O)(=O)c1cccs1	2	5
CCCNC(=O)N[C@@H]1C=C[C@@H](CC(=O)NC2CCC2)O[C@@H]1CO	-1	0
COCC(=O)N(C)C[C@@H]1Oc2cc(C#CCN(C)C)ccc2S(=O)(=O)N([C@H](C)CO)C[C@H]1C	7	-4
O=C(Nc1ccc2c(c1)[C@H]1C[C@H](CC(=O)N3CCCCC3)O[C@H](CO)[C@H]1O2)C1CCC1	0	-2
O=C(Nc1ccc(F)cc1)N1C[C@@H]2[C@H](c3ccccc31)[C@H](CO)N2C(=O)c1ccccc1	-2	18
O=C(c1ccccn1)N1CC(=O)N2[C@H](CO)[C@H](c3ccc(C#CCc4ccccc4)cc3)[C@H]2C1	-22	-13
Cc1noc(C)c1NC(=O)Nc1cccc2c1O[C@H](CN(C)C(=O)Nc1ccccc1)[C@H](C)CN([C@H](C)CO)C2=O	5	9
CC(C)C#Cc1cnc2c(c1)C(=O)N([C@@H](C)CO)C[C@@H](C)[C@@H](CN(C)C(=O)c1ccccn1)O2	22	9
CCC(=O)N1CCCCN2[C@@H](CO)[C@@H](c3ccc(/C=C/c4ccccc4)cc3)[C@@H]2C1	?	nt
CCCC(=O)Nc1ccc2c(c1)OC[C@H](C)N(Cc1ccccc1F)C[C@@H](C)[C@H](OC)CN(C)C2=O	-12	-9
CCCN1[C@H](C(=O)NCC)[C@@H](CO)[C@@H]2Cn3c(ccc(-c4ccc(OC)cc4)c3=O)[C@@H]21	23	15
CCC(=O)Nc1ccc2c(c1)C(=O)N(C)[C@H]1CC[C@H](CC(=O)NCCCN(C)C)O[C@@H]1CO2	7	10
CO[C@H]1CN(C)C(=O)c2ccc(NS(=O)(=O)c3ccccc3)cc2OC[C@@H](C)N(Cc2nccs2)C[C@H]1C	5	-1
O=C(Nc1ccccc1F)N[C@H]1CC[C@@H](CCNC(=O)C2CCOCC2)O[C@H]1CO	1	-7
C#CCNC(=O)C1=C[C@H](c2coc3ccccc3c2=O)C[C@H](OCc2ccc(CO)cc2)O1	-3	-4
C/C=C/c1ccc2c(c1)[C@@H]1[C@@H](CCN1S(=O)(=O)c1cccc(F)c1)[C@H](CO)N2	9	1
C[C@@H](O)C#Cc1ccc2c(c1)O[C@@H](CN(C)C(=O)CN(C)C)[C@@H](C)CN([C@@H](C)CO)S2(=O)=O	17	6
COc1ccc(S(=O)(=O)N(C)C[C@H]2Oc3ccc(N(C)C)cc3C(=O)N([C@H](C)CO)C[C@@H]2C)cc1	2	0
N#Cc1cccc(-c2ccc([C@H]3[C@H](CO)N4CCCCN(C(=O)Cc5ccccc5)C[C@@H]34)cc2)c1	-10	-2
C[C@H](CO)N1C[C@H](C)[C@@H](CN(C)S(=O)(=O)c2ccccc2)OCCCC[C@H](C)Oc2ccc(NC(=O)NC3CCCCC3)cc2C1=O	-15	-4
CCS(=O)(=O)Nc1ccc2c(c1)C(=O)N(C)C[C@H](OC)[C@@H](C)CN(C)[C@@H](C)CO2	10	-2
O=C(C[C@@H]1CC[C@@H]2[C@H](COC[C@H](O)CN2Cc2ccc(C(F)(F)F)cc2)O1)N1CCc2ccccc2C1	?	nt
C[C@@H]1CCCCO[C@@H](CN(C)C(=O)CCCN(C)C)[C@@H](C)CN([C@@H](C)CO)C(=O)c2cc(NC(=O)C3CCCCC3)ccc2O1	4	-7
Cc1ccc(-c2cnc3c(c2)C(=O)N([C@H](C)CO)C[C@H](C)[C@@H](CN(C)C(=O)Cc2ccncc2)O3)cc1	-26	-17
Following part:
SMILES	Vaccinia inh	Vaccinia inh Venus
CO[C@@H]1CN(C)C(=O)c2cc(NC(C)=O)ccc2OC[C@@H](C)N(C(=O)c2ccccc2F)C[C@H]1C	4	9
CO[C@@H]1CN(C)C(=O)c2ccc(NS(=O)(=O)c3ccc(-c4ccccc4)cc3)cc2OC[C@H](C)NC[C@H]1C	-5	2
Cc1ccc(S(=O)(=O)N[C@H]2C=C[C@@H](CC(=O)O)O[C@@H]2CO)cc1	7	12
CCC(=O)N1CCCCN2[C@H](C1)[C@@H](c1ccc(C#Cc3cccnc3)cc1)[C@@H]2CO	12	-1
CC(C)c1cn(CC[C@H]2CC[C@@H](NS(=O)(=O)c3ccccc3)[C@H](CO)O2)nn1	11	11
CN1C(=O)c2cc(NC(=O)C3CC3)ccc2OC[C@H]2O[C@H](CC(=O)NCCc3ccncc3)CC[C@@H]21	5	-1
COc1ccc(S(=O)(=O)N(C)C[C@@H]2Oc3cc(Br)ccc3S(=O)(=O)N([C@H](C)CO)C[C@@H]2C)cc1	-17	-20
COCC(=O)N[C@H]1CC[C@H](CC(=O)NCc2ccccc2OC)O[C@H]1CO	8	6
C[C@H](CO)N1C[C@H](C)[C@@H](CN(C)C(=O)NC2CCCCC2)Oc2ccc(NC(=O)NC3CCCCC3)cc2CC1=O	6	0
C[C@@H]1CCCCO[C@H](CN(C)Cc2ccc3c(c2)OCO3)[C@H](C)CN([C@H](C)CO)C(=O)c2cc(NS(=O)(=O)c3ccccc3)ccc2O1	?	nt
CCCC(=O)Nc1ccc2c(c1)OC[C@@H](C)N(CCC(F)(F)F)C[C@@H](C)[C@@H](OC)CN(C)C2=O	-23	-17
C[C@H](CO)N1C[C@H](C)[C@@H](CN(C)S(=O)(=O)c2cccs2)Oc2ccc(NC(=O)C3CC3)cc2C1=O	4	10
CC(C)NC(=O)Nc1ccc2c(c1)C(=O)N([C@@H](C)CO)C[C@@H](C)[C@H](CN(C)Cc1ccncc1)OCCCC[C@H](C)O2	23	3
C[C@@H]1CN([C@H](C)CO)C(=O)c2cc(NC(=O)NC3CCCCC3)ccc2O[C@@H]1CN(C)Cc1ccc(C(=O)O)cc1	8	7

By substructure, the entries above with a cyano group.
SMILES	Vaccinia inh	Vaccinia inh Venus
C[C@H](CO)N1C[C@H](C)[C@H](CN(C)C(=O)Nc2ccc(F)cc2)Oc2ncc(-c3ccc(C#N)cc3)cc2C1=O	-5	-5
N#Cc1cccc(-c2ccc([C@H]3[C@H](CO)N4CCCCN(C(=O)Cc5ccccc5)C[C@@H]34)cc2)c1	-10	-2

Among those listed so far, 9 have an aryl methoxy group:
SMILES	Vaccinia inh	Vaccinia inh Venus
COc1ccc(CN2C[C@H](C)[C@@H](OC)CN(C)C(=O)c3cc(NC(=O)c4nc5ccccc5s4)ccc3OC[C@@H]2C)cc1	-12	-1
COc1ccc(CN(C)C[C@H]2OCCCC[C@H](C)Oc3ccc(NC(=O)C4CCCCC4)cc3C(=O)N([C@@H](C)CO)C[C@H]2C)cc1	?	nt
COc1ccc(S(=O)(=O)N2C[C@@H](O)COC[C@H]3O[C@@H](CC(=O)NCCCN4CCOCC4)CC[C@@H]32)cc1	15	8
COc1ccc(S(=O)(=O)Nc2ccc3c(c2)CC(=O)N([C@H](C)CO)C[C@H](C)[C@@H](CN(C)S(=O)(=O)c2ccc(OC)cc2)O3)cc1	-16	-12
COc1ccc(NC(=O)N(C)C[C@H]2OCCCC[C@@H](C)Oc3ccc(NC(=O)Nc4ccc(F)cc4)cc3C(=O)N([C@@H](C)CO)C[C@H]2C)cc1	8	15
CCCN1[C@H](C(=O)NCC)[C@@H](CO)[C@@H]2Cn3c(ccc(-c4ccc(OC)cc4)c3=O)[C@@H]21	23	15
COc1ccc(S(=O)(=O)N(C)C[C@H]2Oc3ccc(N(C)C)cc3C(=O)N([C@H](C)CO)C[C@@H]2C)cc1	2	0
COc1ccc(S(=O)(=O)N(C)C[C@@H]2Oc3cc(Br)ccc3S(=O)(=O)N([C@H](C)CO)C[C@@H]2C)cc1	-17	-20
COCC(=O)N[C@H]1CC[C@H](CC(=O)NCc2ccccc2OC)O[C@H]1CO	8	6

A portion of the library (hit frequency here may not be typical).
